From PubChem
FGF22 binding: binders of recombinant human FGF22 by thermal shift. SYPRO orange fluorescence; percent of sucrose octasulfate shift, DMSO zero. actives 1.5% (n = 340,000). calls only at 9.99 µM. AID 651658. Q9HCT0;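 active = melting point raised past a set limit in the mean and every replicate; inconclusive = no clear call; three in four hits are not shown here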
UCH37 DUB inh: inhibitors of human deubiquitinating enzyme UCH37; Q9Y5K5; purified proteasome/UCH37, Ub-AMC cleavage fluorescence; inhibition, % (test concentration not listed); actives 0.33% (n = 330,000);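 active = mean of two replicates above 20%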;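 also: 0% = compound-free wells with enzyme and 100% = wells lacking proteasome; stock transfer was 100 nL into about 20 µL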
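Assay system: Proteasome-bound UCH37. Buffer or medium: pH 7.4 Tris-HCl (50 mM) with ovalbumin, ATP-MgCl2, DTT. Incubation: 30 min preincubation with enzyme, 25 min cleavage at room temperature. Measured by: fluorescence, ex 355 nm, em 460 nm. Read-out basis: percent inhibition. Control set: wells without proteasome as full block, compound-free enzyme plus substrate as uninhibited.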
Vif A3G: HIV-1 Vif–A3G interaction blockers – biochemical, TR-FRET, GST-Vif 1-94, biotin-A3G peptide, dose response retest, primary screen (AID 1117319). actives 0.57% (n = 260,000). inhibition, %, or IC50 in µM where a hit was titrated. TR-FRET GST-Vif / biotin-A3G peptide binding; higher % means a stronger effect; test concentration not given here; strong numbers were not always called active;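 active = above the screen mean plus three standard deviations and confirmed in dose response; inconclusive = results disagree or hit not tested in dose response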;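 also: Vif residues 1-94 fused to GST binding biotinylated APOBEC3G peptide 110-148; 0% = full assay without inhibitor and 100% = GST in place of GST-Vif; retest series ran down from 100 µM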
RanGTP-Impb inh: disruptors of Ran-importin-beta complex formation – biochemical, FRET, CFP-Ran, YFP-importin-beta, homogeneous, primary screen. actives 1.1% (n = 300,000). cell-free CFP-Ran/YFP-importin-beta FRET ratio. inhibition, % (no concentration beside the values). AID 2216;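 active = most replicates above 15%; inconclusive = exactly half above 15%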;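 also: 0% = DMSO wells and 100% = Ran loaded with GDP instead of GTP; wells of about 40 µL received 100 nL stock; the first replicate is given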
HNF4A DNA FP: change in binding of human HNF4 alpha to DNA; P41235; HNF4a-FITC DNA binding, fluorescence polarization, 1 h; activity change, % at 10 µM; actives 0.3% (n = 360,000); AID 1224865; in the data active = activity change above about 30%, passing the limit was not always enough;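 also: controls were the assay level and a saturating level of protein; the project sought stronger binding though the title names inhibitors; some compounds called inactive have numbers as strong as hits; positive values seem to mean higher polarization but the record does not say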
Target sequence (P41235 whole entry, looked up): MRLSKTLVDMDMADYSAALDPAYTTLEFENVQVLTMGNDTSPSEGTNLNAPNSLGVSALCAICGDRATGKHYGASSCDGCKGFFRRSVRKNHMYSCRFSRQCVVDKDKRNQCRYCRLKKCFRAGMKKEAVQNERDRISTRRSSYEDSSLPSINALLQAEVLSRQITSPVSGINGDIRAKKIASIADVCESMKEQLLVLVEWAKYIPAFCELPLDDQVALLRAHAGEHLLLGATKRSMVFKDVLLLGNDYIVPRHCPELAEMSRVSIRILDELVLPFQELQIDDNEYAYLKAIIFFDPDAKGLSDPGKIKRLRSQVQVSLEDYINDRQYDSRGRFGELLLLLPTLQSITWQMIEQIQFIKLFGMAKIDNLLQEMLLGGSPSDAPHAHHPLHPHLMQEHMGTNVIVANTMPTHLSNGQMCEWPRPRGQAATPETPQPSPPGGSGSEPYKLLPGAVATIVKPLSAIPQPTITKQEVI
AF4-AF9 inh: blocks AF4 peptide binding to human AF9; AlphaScreen, biotin-AF4 peptide binding to FLAG-AF9; actives 0.47% (n = 350,000); P42568; inhibition, % at 10 µM;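 active = every replicate reaching a set inhibition limit, whatever the replicate mean, cut at about 25% in these data; inconclusive = mean inhibition reaches that limit but some replicates miss it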;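 also: 0% = plate neutral control median and 100% = total signal loss; the record names both 10 and 1 µM as test concentration; the first replicate is given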
Target sequence (P42568 whole entry, looked up): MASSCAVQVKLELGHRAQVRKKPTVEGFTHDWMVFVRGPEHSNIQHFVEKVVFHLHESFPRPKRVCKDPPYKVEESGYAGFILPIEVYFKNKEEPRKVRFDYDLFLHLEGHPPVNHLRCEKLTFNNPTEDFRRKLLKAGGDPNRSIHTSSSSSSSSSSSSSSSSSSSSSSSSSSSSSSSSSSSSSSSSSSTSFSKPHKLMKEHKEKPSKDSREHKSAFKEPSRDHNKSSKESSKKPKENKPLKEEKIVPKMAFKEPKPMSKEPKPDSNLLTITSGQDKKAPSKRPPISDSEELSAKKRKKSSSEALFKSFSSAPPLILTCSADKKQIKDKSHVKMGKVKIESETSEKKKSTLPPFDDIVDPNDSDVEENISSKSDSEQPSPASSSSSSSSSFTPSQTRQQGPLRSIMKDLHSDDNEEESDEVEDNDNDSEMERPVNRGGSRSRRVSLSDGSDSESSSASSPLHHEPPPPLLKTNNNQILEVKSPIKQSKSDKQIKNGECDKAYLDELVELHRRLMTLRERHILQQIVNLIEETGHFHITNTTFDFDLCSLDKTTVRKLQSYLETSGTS
Ecoli growth: E. coli growth inhibition | actives 0.21% (n = 330,000) | AID 1053175 | Escherichia coli growth, OD600, 23 h; stronger effect = lower value | OD600 absorbance (test concentration not listed);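 active = OD600 absorbance below the run mean of sample wells minus 3.6 SD, in any replicate, cut at about 0.56 in these data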;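 also: stock transfer was 300 nL into about 60 µL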
* hit, by the source's call; i = inactive; ? = inconclusive; . = no result given.

Compound | UCH37 DUB inh | Vif A3G | FGF22 binding | Ecoli growth | AF4-AF9 inh | HNF4A DNA FP | RanGTP-Impb inh
COc1ccc(NC(=O)Nc2ccc(OC)cc2)cc1 | . | 12.4% | . | . | . | 1.4 | -0.2
COc1ccc(C)cc1NS(=O)(=O)c1ccc2c(c1)CCN2C(C)=O | 3.8 | 1.7% | i | 0.722 | -0.8 | 2.4 | 6.0
CC/C=C(/NC(C)=O)c1ccccc1 | -24.1 | . | i | 0.771 | -2.6 | -3.2 | .
COCCNCC(=O)N1CCCCCC1 | -0.4 | 8.8% | i | 0.682 | -0.9 | -2.7 | -3.0
O=C(CC1S/C(=N/N=C/c2cccs2)NC1=O)Nc1ccc(Cl)c(Cl)c1 (centres undefined) | . | 16.7% | . | . | . | -1.9 | 1.1
COc1ccc(CN(C)C(=O)c2ccccc2OCc2c(C)noc2C)c(OC)c1 | 0.4 | 15.8% | i | 0.634 | 5.0 | 0.0 | .
O=[N+]([O-])c1ccccc1Sc1nccn1Cc1ccccc1 | 2.2 | 30.8% | . | 0.663 | . | -1.1 | ?
Cc1cc(NC(=O)C23CC4CC(C2)CC(n2cnc([N+](=O)[O-])n2)(C4)C3)no1 | 1.7 | 7.2% | i | 0.707 | -1.1 | 0.0 | .
N#CC1=C(N)OC2=C(C(=O)CCC2)C1C1CC=CCC1 (centres undefined) | 2.6 | 8.3% | . | 0.663 | . | 1.4 | -2.9
Cc1ccc2nc(NCC(=O)NN)nc(-c3ccccc3)c2c1 | -490.1 | 5.5% | i | 0.701 | -1.5 | 3.7 | ?
CC(C)Cc1ccc(CN2CCCC(NC(=O)Cn3cnnn3)C2)cc1 (centres undefined) | 1.6 | ? | i | 0.655 | 2.3 | 0.2 | -2.8
CC(=O)c1cccc(NC(=O)N2CC(C)OC(C)C2)c1 (centres undefined) | 0.8 | . | i | 0.702 | -3.1 | 4.0 | -0.1
Cc1c(C(=O)N/N=C/c2cccs2)nnn1-c1nonc1N | . | . | . | . | -2.9 | 2.2 | -2.8
CC(=O)c1ccc(OCC(O)CN2CCN(CC(O)COc3ccc(C(C)=O)cc3)CC2)cc1 (centres undefined) | -0.7 | . | . | 0.681 | . | -1.6 | -1.0
Cn1c2c(c(=O)c3ccccc31)CCC(C)(C)O2 | -33.2 | -1.6% | i | 0.685 | 2.6 | -1.3 | 1.9

Next structures.
Compound | UCH37 DUB inh | Vif A3G | FGF22 binding | Ecoli growth | AF4-AF9 inh | HNF4A DNA FP | RanGTP-Impb inh
COc1cccc(C(=O)NC(Cc2ccccc2)c2ccc3c(c2)OCCCO3)c1 (centres undefined) | 1.1 | 5.5% | i | 0.738 | -6.4 | 0.9 | -1.0
CC(=O)c1c(C)[nH]c(C(=O)OCC(=O)Nc2cc(Cl)ccc2[N+](=O)[O-])c1C | 1.7 | . | i | 0.66 | 5.5 | 0.2 | 3.1
COc1ccc(OC(=O)N2C/C(=C/c3ccccc3)C(=O)/C(=C\c3ccccc3)C2)cc1 | . | 3.1% | i | . | 1.0 | -2.1 | .
CCc1cc(C(=O)N(CC(C)C)c2c(N)n(Cc3ccccc3)c(=O)[nH]c2=O)sc1C | 1.7 | 3.9% | i | 0.63 | -5.7 | 0.7 | 3.2
O=C1c2cccc3cccc(c23)C(=O)N1CCN1CCN(CC(O)COc2ccc3ccccc3c2)CC1 (centres undefined) | -0.5 | . | i | 0.651 | 11.0 | -1.8 | -2.0
O=C(CCn1cccc1)NCc1ccccc1 | 0.6 | 0.0% | . | 0.652 | . | 3.1 | 1.8
CCCCOc1ccc(-c2csc(N)n2)cc1[N+](=O)[O-] | 2.6 | . | . | 0.693 | . | -1.9 | -2.0
Cc1cc(=O)oc2c3c(cc(OCC(=O)NCc4ccccn4)c12)OC(C)(C)CC3 | i | . | i | 0.716 | 3.7 | -1.6 | 0.2
Nc1ccc(-c2nnc(-c3ccc(N)cc3)o2)cc1 | -348.4 | -4.0% | i | 0.667 | -0.5 | 0.6 | 2.2
CCOC(=O)CSc1nnc(-c2ccncc2)o1 | 4.8 | 16.1% | . | 0.746 | . | -1.7 | -0.7
COC(=O)c1ccc(CSc2nc(C(F)F)cc(C)c2C#N)o1 | 2.3 | . | i | 0.674 | 1.0 | -1.4 | 3.2
CC(Sc1ccccc1)C(=O)NNC(=O)c1ccncc1 (centres undefined) | 2.2 | 9.2% | i | 0.609 | -0.7 | -2.9 | ?
CCOC(=O)COc1ccc(Br)cc1C1NC(=O)NC(C)=C1C(=O)NCc1ccccc1 (centres undefined) | -0.3 | 1.4% | i | 0.707 | 1.1 | 1.5 | -1.1
CCOC(=O)CNC(=S)N(CCCN1CCCCCC1)Cc1cccs1 | -0.7 | -0.5% | i | 0.666 | 1.8 | 4.7 | -3.1
C=CCNc1nc(-c2sc(NC(C)=O)nc2C)cs1 | -3.0 | 15.7% | . | 0.648 | . | 0.8 | 2.9

Further entries.
Compound | UCH37 DUB inh | Vif A3G | FGF22 binding | Ecoli growth | AF4-AF9 inh | HNF4A DNA FP | RanGTP-Impb inh
COc1cc(C2c3cc4c(cc3CC3COC(=O)N32)OCO4)cc(OC)c1OC (centres undefined) | . | -3.5% | i | . | 9.1 | -4.5 | .
COc1ccccc1CNC(=O)CN1C(=O)c2ccc([N+](=O)[O-])cc2C1=O | -1.3 | -4.2% | i | 0.683 | -9.6 | 2.0 | 1.4
CCCS(=O)(=O)c1nc(S(=O)(=O)c2ccc(C)cc2)c(NCc2ccc3c(c2)OCO3)s1 | 6.8 | . | i | 0.781 | 4.4 | -1.8 | -1.2
S=c1[nH]c2ccc3ccccc3c2[nH]1 | -3.0 | 4.2% | . | 0.7 | . | 0.7 | 17.1*
CC(=O)N1CCSc2ccc(S(=O)(=O)N3CCC(C)CC3)cc21 | 2.0 | ? | i | 0.674 | 1.1 | -2.1 | 1.1
O=C(NC12CC3CC(CC(C3)C1)C2)C12CC3CC(C1)CC(n1cnc(Cl)n1)(C3)C2 | 1.5 | 0.8% | . | 0.728 | . | -6.2 | 0.4
Cc1ccc(-c2noc(COc3ccccc3C)n2)cc1 | 2.0 | -4.5% | . | 0.698 | . | 3.6 | 0.2
O=C(Cn1c(=O)n(-c2ccccc2)c(=O)c2oc3ccccc3c21)Nc1ccccc1 | 3.2 | . | . | 0.697 | . | 2.4 | 6.5
COc1cccc(CC(=O)OCC(=O)NCCc2ccc(F)cc2)c1 | -0.2 | -7.7% | i | 0.635 | 0.1 | -1.6 | .
COCCCNC(=O)CCc1ccccc1 | 1.0 | 14.9% | . | 0.71 | -1.3 | -1.2 | 2.0
CCCOc1ccc(/C=N/NC(=O)CN(c2ccc(OCC)cc2)S(C)(=O)=O)cc1 | . | -0.5% | i | . | -1.8 | 0.2 | 5.3
Cc1cccc(N(CC(=O)NC2CCCC2)C(=O)CCC(=O)Nc2cc(C)on2)c1 | 3.5 | . | i | 0.665 | -3.9 | -2.2 | 1.0
CC1C(=O)N(Cc2cn(Cc3ccco3)nn2)CCS(=O)(=O)N1Cc1ccc(-c2ccncc2)cc1 (centres undefined) | . | 4.6% | i | . | 3.7 | -2.8 | .
Cc1c(Cl)cccc1NC(=O)CNC(=O)c1ccccc1F | 2.0 | 13.2% | i | 0.723 | -5.3 | 3.9 | ?
CCNc1nc(NCC)nc(-n2nc(C)cc2C)n1 | 1.4 | 3.5% | i | 0.68 | 0.8 | -0.2 | -3.0

More entries
Compound | UCH37 DUB inh | Vif A3G | FGF22 binding | Ecoli growth | AF4-AF9 inh | HNF4A DNA FP | RanGTP-Impb inh
CCCCNC(=O)Cn1nc(Cc2ccncc2)c2ccccc2c1=O | 2.7 | -6.1% | i | 0.677 | -1.8 | 2.9 | -5.9
CCC1CCCCN1C(=O)Cn1c(=O)oc2ccccc21 (centres undefined) | 0.7 | 0.7% | . | 0.725 | . | 1.3 | -3.2
COc1ccc(C2=Nn3c(nnc3-c3ccccn3)SC2)cc1OC | 12.6 | ? | . | 0.708 | . | 5.2 | -0.2
C=CCC1c2cccc(C(=O)O)c2C(=O)N1c1cccc(C)c1 (centres undefined) | -0.8 | 23.9% | i | 0.726 | 12.1 | -1.0 | 5.4
O=C(Nc1nc2cc3c(cc2s1)OCCO3)c1ccncc1 | 8.5 | . | i | 0.717 | 1.2 | 7.0 | .
COc1cccc(Nc2ccc(C(=O)O)cc2[N+](=O)[O-])c1 | 1.9 | . | . | 0.675 | . | 3.3 | -6.5
CC1=N/C(=C\c2ccc([N+](=O)[O-])cc2)C(=O)N1c1cc(Cl)ccc1C | 1.6 | 4.4% | . | 0.683 | . | 4.2 | -4.5
CCCCC/C=C\C[C@H](O)/C=C/c1cccc(C[C@H](O)CCCCO)n1 | 0.2 | 2.3% | i | . | -31.2 | 8.8 | 4.4
Cn1c(=O)c2c(nc(Br)n2CCSc2ncccn2)n(C)c1=O | 1.4 | -2.6% | . | 0.705 | . | 0.2 | 24.7*
CCOc1ccc(S(=O)(=O)N2CCCCC2)cc1NC(=O)Cc1cc(OC)c(OC)c(OC)c1 | . | 2.8% | i | . | 0.0 | 2.0 | .
COc1ccc(/C=N/NC(=O)c2ccc3nc[nH]c3c2)cc1OC | . | 7.2% | i | . | -4.2 | -2.8 | -1.7
Cc1ccc(/C=N\Nc2nc3ccc(Cl)cc3[nH]2)o1 | . | 12.8% | . | . | . | -0.6 | ?
COc1ccc(C(=O)N2CCc3ccccc32)cc1 | 3.6 | -4.7% | . | 0.664 | . | -6.8 | 2.5
CCCCCCCCN1C(=O)[C@H](CC(=O)N2CCN(C(=O)c3ccco3)CC2)C[C@@]2(C(=O)OC)CC(C)(C)CC=C12 | . | . | . | . | -5.8 | -3.1 | .
COc1cc(NC2c3ccccc3C(=O)N2c2ccc(C)cn2)cc(OC)c1OC (centres undefined) | 0.1 | 2.4% | i | 0.705 | 6.8 | 1.0 | 3.5

Following part.
Compound | UCH37 DUB inh | Vif A3G | FGF22 binding | Ecoli growth | AF4-AF9 inh | HNF4A DNA FP | RanGTP-Impb inh
O=C(Cn1c2ccccc2c(=O)c2ccccc21)N/N=C/c1cc([N+](=O)[O-])ccc1N1CCCCCC1 | . | 2.3% | . | . | . | -21.8 | -3.7
CCOc1ccc(OCCC(=O)N(CCC(C)C)c2c(N)n(Cc3ccccc3)c(=O)[nH]c2=O)cc1 | 0.3 | -0.3% | i | 0.611 | -0.5 | -0.7 | 1.7
COc1ccccc1C(=O)COC(=O)C1CCN(S(=O)(=O)c2ccc(C)c(C)c2)CC1 | 3.0 | -3.8% | i | 0.635 | -0.2 | 0.3 | -0.1
COc1ccccc1CCC(=O)NNC(=O)c1cccs1 | 3.8 | 2.5% | i | 0.729 | -1.7 | -5.2 | .
COc1ccc(CNC(=O)c2cccc(S(=O)(=O)N3CCCCC3)c2)cc1OC | 6.2 | 1.8% | i | 0.724 | 4.7 | 1.2 | .
CC(=O)Nc1ccc(S(=O)(=O)Oc2ccccc2N2CCCCC2)cc1 | . | 8.7% | i | . | 3.0 | -1.7 | 5.8
O=[N+]([O-])c1ccc(N2CCc3ccccc3C2)cc1 | 5.2 | . | i | 0.697 | 0.8 | -1.5 | ?
COC(=O)[C@@H](NC(=O)NC(C)CCc1ccccc1)C(C)C (some centres undefined) | 0.8 | -0.6% | . | 0.718 | . | 1.1 | 1.5

Not all compounds are listed; rates above refer to the full screens.
